ClpP mod = qHTS Assay for Activators of ClpP | hit rate 1.9% among 340,000 | Potency, µM (top dose mostly 57.5 µM), inactives show top-dose activity change, negative = active | purified B. subtilis ClpP, FRET peptide cleavage, 20 min | ATP-dependent Clp protease proteolytic subunit (Bacillus subtilis (strain 168)), P80244; active = well fitted falling curve with a large enough effect; inconclusive = small, poorly fitted or top-dose-only effect; inactive = no such curve, though single readings can be large or run the other way; note: the source files actives as falling curves though it sought activators and does not explain the sign; nearly all actives have a fitted effect of over 65% in size; many hits overshoot -100%
Target sequence (P80244 whole entry, looked up): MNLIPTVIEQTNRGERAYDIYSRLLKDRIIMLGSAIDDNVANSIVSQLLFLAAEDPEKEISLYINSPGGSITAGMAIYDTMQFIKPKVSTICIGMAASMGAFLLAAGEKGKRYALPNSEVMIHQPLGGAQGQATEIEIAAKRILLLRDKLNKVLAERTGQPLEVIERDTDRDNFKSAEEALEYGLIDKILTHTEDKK
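FRET quenching reversal measured ClpP activation: 10 microg/mL B. subtilis ClpP at pH 8 with the FRET-FV decapeptide, read at 430 nm after 320 nm excitation. The 20-min minus 0-min signal was scaled between DMSO/no-enzyme wells and ADEP (5.8 microM final).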
PINK1 expr mod = modulators of PINK1 expression | PINK1 immunofluorescence, high-content cytometry, 24 h | hit rate 0.2% among 410,000 | Potency, µM (highest dose often 76.6 µM), inactives show top-dose activation (PINK1 increase), most hits filed as activators; active = well fitted activation curve with a large enough effect; inconclusive = small, poorly fitted or top-dose-only effect; inactive = flat fitted curve, though single readings scatter; cell line not stated here;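 note: % of control where 0% means no effect; nearly all actives have a fitted effect of over 65% in size; a mitochondrial uncoupler was the plate control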
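Stable cell line, 250 cells/well, 12 h attachment; compounds pinned at 5 concentrations, 24 h; CCCP control. Fixed with nuclear dye, primary antibodies 12 h at 10 degrees C, secondary plus cell stain; laser-scanning cytometer read.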
Starred values were filed as active, the others as inactive; ? = inconclusive. Potency is the fitted concentration of half-maximal effect. Some of the compounds tested; count on the stated rates, not on these rows.

Sample of the layout (2 entries):
SMILES | ClpP mod | PINK1 expr mod
Cc1cccc(OCC(=O)N2CCN(Cc3cc(=O)n4nc(-c5ccccc5Cl)sc4n3)CC2)c1 | -0.2% | 0.6%
CCc1ccc(NC(=O)c2cccn(Cc3cccc([N+](=O)[O-])c3)c2=O)cc1 | 1.5% | 3.8%

This part in full, from the first entry:
SMILES | ClpP mod | PINK1 expr mod
Cc1cccc(OCC(=O)N2CCN(Cc3cc(=O)n4nc(-c5ccccc5Cl)sc4n3)CC2)c1 | -0.2% | 0.6%
CCc1ccc(NC(=O)c2cccn(Cc3cccc([N+](=O)[O-])c3)c2=O)cc1 | 1.5% | 3.8%
Cc1cccc(C2CC(=O)Oc3c2c(=O)oc2ccccc32)c1 (stereo unspecified) | 4.0% | 0.2%
N#Cc1ccccc1NC(=O)c1cccn(Cc2ccccc2)c1=O | -2.9% | 2.3%
CSc1ncc(C(=O)Nc2ccc(Cl)cc2C(=O)c2ccccc2)c(C)n1 | -3.8% | 3.7%
CCOC(=O)[C@]12Cc3ccc(C)cc3[C@H]1N(C1CCCCC1)C(=O)c1ccccc12 | -3.6% | -1.3%
COc1ccc(-n2c(/C=C\c3ccccc3F)nc3ccccc3c2=O)c(OC)c1 | -2.4% | 1.4%
COc1ccc(Br)cc1C1SCC(=O)Nc2c1c(C)nn2-c1ccccc1C (stereo unspecified) | -0.4% | 1.7%
Cc1nnc(NC(=O)c2cccn(Cc3cccc(F)c3)c2=O)s1 | -4.1% | 0.0%
CCOC(=O)[C@]12Cc3c(cc(OC)c(OC)c3OC)[C@H]1N(C(C)C)C(=O)c1cc(OC)ccc12 | -0.2% | -1.3%
Cc1ccc(-c2nc(CN3C(=O)CN=C(c4ccccc4Cl)c4cc(Cl)ccc43)c(C)o2)cc1 | -4.7% | 0.7%
Cc1ccc(Cn2cccc(C(=O)Nc3ccc4c(c3)OCCO4)c2=O)cc1 | 1.7% | -1.1%
CC(C)c1nn2c(=O)cc(COC(=O)Cc3ccccc3)nc2s1 | -0.6% | 1.0%
CCCn1cc(S(=O)(=O)c2ccc(OC)cc2)c(=O)c2cc(F)c(N3CCCCCC3)cc21 | ? | 1.2%
N#Cc1ccc2nc(-c3ccc(CN4CCC(n5c(=O)[nH]c6ccccc65)CC4)cc3)c(-c3ccccc3)nc2c1 | -4.1% | -0.9%
CO[C@H]1C=CCCC=CC(=O)O[C@H]([C@H](C)C(=O)CCCC2CC(=O)NC(=O)C2)C(C)=C[C@@H](C)[C@@H]1O | 1.7% | -0.2%
Cc1cccc(-n2c(/C=C/c3cn(C)c4ccccc34)nc3ccccc3c2=O)c1 | 0.5% | 0.5%
CC(C)C12CN3CC(C(C)C)(CN(C1)C3c1ccccn1)C2=O (stereo unspecified) | 0.9% | -1.0%
O=C(Nc1ccc2c(c1)OCO2)c1cccn(Cc2cccc(F)c2)c1=O | -1.3% | 1.7%
COC(=O)[C@@]1(Sc2ccc(C)cc2)CC(=O)N(P(=O)(OC)OC)[C@@H]1c1ccccc1 | 2.6% | 3.3%
CCOc1ccc2nc(NC(=O)c3cccn(Cc4ccc(Cl)cc4)c3=O)sc2c1 | -9.4% | ?
Cn1nc(-c2ccccc2)nc2c(=O)n(C)c(=O)nc1-2 | 0.4% | 0.1%
Cc1ccccc1OCC(=O)N1CCN(CCc2ccccn2)CC1 | 0.6% | -0.3%
Cc1cc(NC(=O)c2cccn(Cc3ccccc3)c2=O)no1 | -13% | 0.8%
COc1cc(/C=C/c2nc3ccccc3c(=O)n2-c2ccc(Br)c(C)c2)ccc1O | 0.4% | 5.2%
Cc1ccc(Cl)cc1NC(=O)N(Cc1ccc2c(c1)OCO2)C1CCN(Cc2ccccc2)CC1 | -2.4% | 0.8%
N#Cc1cc2c(nc1SCC(=O)Nc1cccc(F)c1)C1CCN2CC1 | -1.2% | 0.5%
COc1cccc(C(=O)Nc2ccc(-c3cc(C(F)(F)F)nn3-c3ccccc3)cc2)c1 | ? | 0.9%
CCOc1ccc(-n2c(/C=C/c3ccccc3)nc3ccccc3c2=O)cc1 | -1.8% | -0.2%
CCOc1ccc(-c2cc(C)n3nc(C(=O)Nc4ccc(C)c(C)c4)cc3n2)cc1 | 3.5µM* | 5.6%
O=c1[nH]c2ccccc2n1C1CCN(Cc2ccc(-c3nc4ccc(F)cc4nc3-c3ccccc3)cc2)CC1 | -13% | 0.2%
CC(C)(C)c1ccc(OCC(=O)Nc2ccc(Cl)cc2C(=O)c2ccccc2)cc1 | -1.1% | 2.4%

In a second layout: entries from further up
smiles	ClpP mod	PINK1 expr mod
CO[C@H]1C=CCCC=CC(=O)O[C@H]([C@H](C)C(=O)CCCC2CC(=O)NC(=O)C2)C(C)=C[C@@H](C)[C@@H]1O	1.7%	-0.2%
Cc1cccc(-n2c(/C=C/c3cn(C)c4ccccc34)nc3ccccc3c2=O)c1	0.5%	0.5%
CC(C)C12CN3CC(C(C)C)(CN(C1)C3c1ccccn1)C2=O (stereo unspecified)	0.9%	-1.0%
O=C(Nc1ccc2c(c1)OCO2)c1cccn(Cc2cccc(F)c2)c1=O	-1.3%	1.7%
COC(=O)[C@@]1(Sc2ccc(C)cc2)CC(=O)N(P(=O)(OC)OC)[C@@H]1c1ccccc1	2.6%	3.3%
CCOc1ccc2nc(NC(=O)c3cccn(Cc4ccc(Cl)cc4)c3=O)sc2c1	-9.4%	?
Cn1nc(-c2ccccc2)nc2c(=O)n(C)c(=O)nc1-2	0.4%	0.1%
Cc1ccccc1OCC(=O)N1CCN(CCc2ccccn2)CC1	0.6%	-0.3%
Cc1cc(NC(=O)c2cccn(Cc3ccccc3)c2=O)no1	-13%	0.8%
COc1cc(/C=C/c2nc3ccccc3c(=O)n2-c2ccc(Br)c(C)c2)ccc1O	0.4%	5.2%
Cc1ccc(Cl)cc1NC(=O)N(Cc1ccc2c(c1)OCO2)C1CCN(Cc2ccccc2)CC1	-2.4%	0.8%
N#Cc1cc2c(nc1SCC(=O)Nc1cccc(F)c1)C1CCN2CC1	-1.2%	0.5%
COc1cccc(C(=O)Nc2ccc(-c3cc(C(F)(F)F)nn3-c3ccccc3)cc2)c1	?	0.9%
CCOc1ccc(-n2c(/C=C/c3ccccc3)nc3ccccc3c2=O)cc1	-1.8%	-0.2%
CCOc1ccc(-c2cc(C)n3nc(C(=O)Nc4ccc(C)c(C)c4)cc3n2)cc1	3.5µM*	5.6%
O=c1[nH]c2ccccc2n1C1CCN(Cc2ccc(-c3nc4ccc(F)cc4nc3-c3ccccc3)cc2)CC1	-13%	0.2%
CC(C)(C)c1ccc(OCC(=O)Nc2ccc(Cl)cc2C(=O)c2ccccc2)cc1	-1.1%	2.4%

Assay outcomes as filed in PubChem BioAssay.
